Bioassay records as filed in PubChem BioAssay.
RanGTP-Impb inh: inhibitors of RanGTP-importin-beta interaction, primary screen, biochemical, FRET, CFP-Ran, YFP-importin-beta, homogeneous; AID 2216, 2009; cell-free CFP-Ran/YFP-importin-beta FRET ratio; 1.1% of 300,000 active; Ran GTPase (GTP-bound) - importin-beta complex; inhibition, % (test concentration not listed);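 active = most replicates above 15%; inconclusive = exactly half above 15%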;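 note: 0% = DMSO wells and 100% = Ran loaded with GDP instead of GTP; wells of about 40 µL received 100 nL stock; the first replicate is given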
AF4-AF9 inh: inhibitors of AF4 peptide binding to AF9, primary screen, biochemical, AlphaScreen, biotin-AF4 peptide, FLAG-AF9, single point. inhibition, % at 10 µM. AID 651704, 2012. 0.47% of 350,000 active;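 active = every replicate reaching a set inhibition limit, whatever the replicate mean, cut at about 25% in these data; inconclusive = mean inhibition reaches that limit but some replicates miss it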;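 note: 0% = plate neutral control median and 100% = total signal loss; the record names both 10 and 1 µM as test concentration; the first replicate is given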
FGF22 binding: binders of human FGF22 protein, primary screen, FGF22 synaptogenesis inhibitor project, biophysical, thermal shift, single point. Fibroblast growth factor 22 (Homo sapiens), Q9HCT0. recombinant FGF22 thermal shift, SYPRO orange fluorescence; percent of sucrose octasulfate shift, DMSO zero. calls only at 9.99 µM. 1.5% of 340,000 active. AID 651658, 2012;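 active = melting point raised past a set limit in the mean and every replicate; inconclusive = no clear call; three in four hits are not shown here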
Target sequence (Q9HCT0 whole entry, looked up): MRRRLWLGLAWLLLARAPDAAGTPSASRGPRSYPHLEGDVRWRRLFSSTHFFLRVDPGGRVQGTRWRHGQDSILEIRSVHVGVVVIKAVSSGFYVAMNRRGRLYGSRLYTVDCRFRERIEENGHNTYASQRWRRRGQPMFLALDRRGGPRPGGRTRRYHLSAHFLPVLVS
Ecoli growth: E. coli growth inhibition, primary screen, OD600 | Escherichia coli growth, 23 h; stronger effect = lower value | OD600 absorbance (no concentration beside the values) | 0.21% of 330,000 active | AID 1053175, 2014;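 active = OD600 absorbance below the run mean of sample wells minus 3.6 SD, in any replicate, cut at about 0.56 in these data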;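 note: stock transfer was 300 nL into about 60 µL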
UCH37 inh: inhibitors of human UCH37 deubiquitinase, primary screen, biochemical, Ub-AMC cleavage, fluorescence. 0.33% of 330,000 active. Ubiquitin carboxyl-terminal hydrolase isozyme L5 (Homo sapiens), Q9Y5K5. purified proteasome/UCH37. inhibition, % (test concentration not listed);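 active = mean of two replicates above 20%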;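 note: 0% = compound-free wells with enzyme and 100% = wells lacking proteasome; stock transfer was 100 nL into about 20 µL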
Target sequence (Q9Y5K5 whole entry, looked up): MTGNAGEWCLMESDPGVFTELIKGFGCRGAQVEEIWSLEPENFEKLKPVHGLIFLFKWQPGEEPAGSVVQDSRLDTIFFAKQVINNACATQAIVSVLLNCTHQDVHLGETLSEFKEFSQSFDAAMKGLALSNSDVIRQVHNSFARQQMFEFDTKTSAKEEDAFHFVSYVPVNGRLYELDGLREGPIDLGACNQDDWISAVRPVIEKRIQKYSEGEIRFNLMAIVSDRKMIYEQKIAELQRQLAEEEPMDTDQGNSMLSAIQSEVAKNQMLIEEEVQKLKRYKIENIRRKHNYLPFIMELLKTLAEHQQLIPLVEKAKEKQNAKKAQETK
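Test system – human UCH37 enzyme supplied as purified proteasome complex · Incubation – 30 min preincubation with enzyme, 25 min cleavage at room temperature · Detection – AMC fluorescence from Ub-AMC cleavage, excitation 355 nm, emission 460 nm · Benchmarks – no-proteasome wells (full inhibition) and compound-free wells (no inhibition)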
Vif TR-FRET: inhibitors of Vif binding to APOBEC3G peptide, primary screen, biochemical, TR-FRET, GST-Vif 1-94, biotin-A3G peptide, dose response retest (AID 1117319); one-dose inhibition, %; IC50 in µM for titrated hits; Virion infectivity factor (Human immunodeficiency virus type 1 group M subtype B (isolate …; 0.57% of 260,000 active; TR-FRET GST-Vif / biotin-A3G peptide binding; higher % means a stronger effect; test concentration not given here; strong numbers were not always called active;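 active = above the screen mean plus three standard deviations and confirmed in dose response; inconclusive = results disagree or hit not tested in dose response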;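 note: Vif residues 1-94 fused to GST binding biotinylated APOBEC3G peptide 110-148; 0% = full assay without inhibitor and 100% = GST in place of GST-Vif; retest series ran down from 100 µM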
HNF4A DNA FP: change in binding of human HNF4A to DNA, primary screen, biochemical, fluorescence polarization, FITC-DNA. Hepatocyte nuclear factor 4-alpha (Homo sapiens), P41235. 1 h. activity change, % at 10 µM. 0.3% of 360,000 active; in the data active = activity change above about 30%, passing the limit was not always enough;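 note: controls were the assay level and a saturating level of protein; the project sought stronger binding though the title names inhibitors; some compounds called inactive have numbers as strong as hits; positive values seem to mean higher polarization but the record does not say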
Target sequence (P41235 whole entry, looked up): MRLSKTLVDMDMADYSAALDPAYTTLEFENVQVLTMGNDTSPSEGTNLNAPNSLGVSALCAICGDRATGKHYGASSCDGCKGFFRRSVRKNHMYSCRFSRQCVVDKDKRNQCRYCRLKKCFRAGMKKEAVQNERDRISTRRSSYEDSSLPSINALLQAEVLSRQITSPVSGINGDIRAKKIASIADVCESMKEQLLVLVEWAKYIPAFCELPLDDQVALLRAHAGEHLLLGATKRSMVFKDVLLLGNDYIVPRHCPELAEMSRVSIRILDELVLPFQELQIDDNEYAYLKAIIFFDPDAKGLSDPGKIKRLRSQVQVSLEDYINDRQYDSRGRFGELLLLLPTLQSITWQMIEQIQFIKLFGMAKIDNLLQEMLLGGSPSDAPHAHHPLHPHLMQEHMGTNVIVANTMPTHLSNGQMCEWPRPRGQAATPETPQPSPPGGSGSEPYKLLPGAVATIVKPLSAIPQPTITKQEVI
The depositor's hits bear a star; i = inactive; u = inconclusive; x = not tested or not shown; & = joins results of further samples.

SMILES	RanGTP-Impb inh	AF4-AF9 inh	FGF22 binding	Ecoli growth	UCH37 inh	Vif TR-FRET	HNF4A DNA FP
COc1ccc(N2CCN(Cc3nc4c(c(=O)n(C)c(=O)n4C)n3Cc3ccccc3C)CC2)cc1	x	-55	i	0.76	4.1	x	-1.7
Cc1cc(NC(=O)C(C)Sc2nnc(NCc3ccco3)s2)no1 (stereo unspecified)	x	0.9	i	0.64	0.0	12%	-2.1
CCC(C)NC(=O)NC1C(NC(=O)NC(C)CC)N(C)C(=O)N1C (stereo unspecified)	0.5	x	x	0.73	-1.6	19%	-2.0
CC(=O)CSc1nnc(-c2ccncc2)n1C	0.7	x	x	0.71	-1.9	-7%	-1.6
Cc1ccc(N(CC(=O)NC2CCCCC2)C(=O)Cn2nnc(-c3ccc(C)o3)n2)cc1	7.4	1.6	i	0.7	3.2	3%	-4.0
COc1ccc(CNC(=O)CN(C(=O)CCC(=O)Nc2nccs2)c2ccc3c(c2)OCO3)cc1	-1.5	-0.2	i	0.72	3.7	x	-4.5
CCCCn1c(N)c(N(C(=O)CSc2nncn2-c2ccccc2)C2CCCC2)c(=O)[nH]c1=O	x	3.1	i	0.68	2.0	x	0.0
Fc1ccc(-n2nnc(-c3ccccc3)n2)cc1	-4.5	0.4	i	0.67	2.4	x	-4.1
CCOc1ccccc1C1NC(=O)NC(C)=C1C(=O)OC1CCCCC1 (stereo unspecified)	2.1	x	x	0.67	-1.3	-2%	0.7
COc1ccc(CN(C(=O)COc2ccccc2)c2ccccc2C(=O)O)cc1	6.8	0.4	i	0.69	2.0	3%	1.4
c1coc(-c2nnc(-c3ccco3)nn2)c1	3.2	-3.3	i	0.64	32*	x	-60
CCN(CC)CCNC(=O)c1ccc(N2CCCCC2)c(NS(=O)(=O)c2ccc(C)cc2)c1	5.3	x	x	0.71	-0.5	0%	1.1
Nc1[nH]n(-c2ccccc2)c(=O)c1N=Nc1ccc2c(c1)OCO2	-1.7	-35	i	x	x	25%	-5.5
CN(C)c1ccnc(-n2cccc2/C=N/O)c1C#N	1.9	-1.7	x	x	x	-2%	0.7
CNC(=O)CN1C(=O)c2cccc3cccc1c23	u	x	x	0.75	-5.7	9%	0.3
CC(=O)OCC(=O)Nc1ccc(Cl)cc1Cl	-1.8	x	x	0.76	1.1	2%	-2.6
Cc1ccccc1NC(=S)NCCSc1ccc(Cl)cc1	3.7	-0.8	i	0.65	1.7	x	1.7
CSc1ccc(S(=O)(=O)NCCSc2ccccn2)cc1	3.9	-1.5	i	0.64	0.6	-1%	-3.7
O=C(NCC(=O)N1CCN(c2ccccc2)CC1)c1cccs1	2.2	-0.5	i	0.72	3.6	-4%	3.3
O=C(CSc1nnc(-c2cccc(S(=O)(=O)N3CCOCC3)c2)n1C1CCCCCC1)NCc1ccccc1	-1.7	x	x	0.66	2.3	-1%	-1.9
CC1CCCCN1Cc1ccc(-c2nn[nH]n2)cc1 (stereo unspecified)	u	x	x	0.75	0.1	1%	1.0
O=C(NCCN1CCCCC1)Nc1cccc(Cl)c1Cl	4.5	0.1	i	0.65	1.2	x	-1.6
N[C@@H](Cc1ccccc1)c1nnc(SC/C=C/c2ccccc2)o1	0.4	0.2	i	0.67	5.1	-11%	0.7
CCOC(=O)N1CCN(c2cc(=O)n(-c3ccc(C)cc3)c(=O)[nH]2)CC1	-1.8	-6.3	i	0.79	3.8	-1%	-0.6
O=C(COC(=O)CCC(=O)c1cccs1)NCCc1ccccc1	x	-0.6	i	0.66	3.2	-12%	-0.1
COc1ccc(CC(=O)Nc2oc(-c3ccccc3)c(-c3ccccc3)c2C#N)cc1OC	-2.4	x	x	0.75	-1.8	6%	3.6
Cn1c(=O)oc2ccccc2c1=O	x	0.8	i	0.66	2.8	-8%	1.2
CC(=O)c1cc(-c2ccccc2)n(CC(=O)N2CCCC2)c1C	-2.9	1.1	i	0.66	2.7	22%	3.8
CCOC(=O)/C(C#N)=C/c1c[nH]c2ccccc12	-2.3	x	x	0.65	0.9	0%&2%	1.6
CCNC(=O)c1cnn(-c2ccccc2)c1-c1ccccc1	-2.4	-2.5	i	0.69	2.1	x	1.3

Grouped by structure, the entries above containing a furan ring, fused or not
SMILES	RanGTP-Impb inh	AF4-AF9 inh	FGF22 binding	Ecoli growth	UCH37 inh	Vif TR-FRET	HNF4A DNA FP
Cc1cc(NC(=O)C(C)Sc2nnc(NCc3ccco3)s2)no1 (stereo unspecified)	x	0.9	i	0.64	0.0	12%	-2.1
Cc1ccc(N(CC(=O)NC2CCCCC2)C(=O)Cn2nnc(-c3ccc(C)o3)n2)cc1	7.4	1.6	i	0.7	3.2	3%	-4.0
c1coc(-c2nnc(-c3ccco3)nn2)c1	3.2	-3.3	i	0.64	32*	x	-60
COc1ccc(CC(=O)Nc2oc(-c3ccccc3)c(-c3ccccc3)c2C#N)cc1OC	-2.4	x	x	0.75	-1.8	6%	3.6

Going on with the list.
SMILES	RanGTP-Impb inh	AF4-AF9 inh	FGF22 binding	Ecoli growth	UCH37 inh	Vif TR-FRET	HNF4A DNA FP
Cc1cccc(NC(=S)NC(=O)Cc2ccccc2)c1C	5.8	-8.9	x	0.68	2.8	x	-0.9
CCc1ccc(/C=N/NC(=O)Cc2cccn2C)cc1	1.3	3.6	i	x	x	10%	5.4
CCN1CCN(C(=O)c2ccccc2N(Cc2ccccc2)S(=O)(=O)c2ccc(OC)cc2)CC1	-0.3	4.5	i	0.72	0.8	28%	1.6
COc1ccccc1NC(=O)COC(=O)CNC(=O)c1ccc(OC)c(OC)c1	-0.3	x	x	0.74	3.7	14%	-5.7
Cc1ccc(C(=O)NC(=S)Nc2cc(-c3nc4ccccc4s3)ccc2C)cc1	4.9	x	x	0.72	2.8	-5%	-0.9
Cc1ccc(C(=O)N2CCCCCC2)cc1S(=O)(=O)Nc1ccccc1	-3.0	-2.1	i	0.73	0.5	x	-0.5
COc1ccc(C2(O)CCN(C(=O)Cc3cccnc3)CC2)cc1	0.9	x	x	0.73	-1.2	u	3.3
CCc1nc2ccc(C(=O)NCc3ccccc3OC)cn2c1N(CC)CCOC	x	-2.4	i	x	x	x	-1.1
COc1ccc(C2=NNC(c3ccco3)=Nc3ccc(F)cc32)cc1	5.2	9.8	i	0.67	2.6	-1%	4.3
NNC(=O)/C(=C\c1ccc(Br)cc1)NC(=O)c1cccs1	6.1	-0.1	i	0.72	1.5	8%	1.1
Cc1cc(C)nc(NS(=O)(=O)c2ccc(N3C(=O)C4CC=C(Cl)CC4C3=O)cc2)n1 (stereo unspecified)	x	x	x	0.68	2.5	2%	0.2
CCOC(=O)c1ccccc1NC(=O)CC1SC(=NC)N(C)C1=O (stereo unspecified)	4.6	x	x	0.74	5.3	12%	0.0
COc1cc(OC)c(NC(=O)c2sc3ncn(CC(=O)N4CCN(c5ccccn5)CC4)c(=O)c3c2C)cc1Cl	-1.7	-3.4	i	0.74	-58	x	-0.5
CSc1ccc(CN2CCC(CO)(Cc3ccc(Cl)cc3)CC2)cc1	7.6	11	i	0.66	7.0	x	0.1
COC(=O)c1ccc(NC(=O)C(=O)N2CCN(C(=S)NCCc3ccccc3)CC2)cc1	-0.7	x	x	0.71	1.5	x	0.8
O=C(OCc1cc2ccccc2[nH]c1=O)C1CCCCC1	-1.3	x	x	0.71	0.5	u	-4.5
CCN(Cc1ccccc1)C(=O)/C=C/c1ccccc1[N+](=O)[O-]	4.9	5.7	i	0.69	5.3	-9%	2.2
Cc1ccc(/C=C2\OC(=O)c3ccccc32)cc1	2.5	x	x	0.69	-47	10%	-4.5
Cc1cc(=O)oc2cc(OC(C)C(=O)NCc3ccccn3)ccc12 (stereo unspecified)	6.2	0.5	i	0.7	-21	x	-3.4
N#Cc1ncccc1CCc1cccc(Cl)c1	-0.7	-3.3	i	0.72	4.8	x	8.1
COC(=O)[C@@]1(C)[C@H]2C(=O)N(Cc3ccccc3)C(=O)[C@H]2[C@H]2CN=C(SC)N21	x	-1.4	i	0.69	3.4	-3%	1.4
O=S(=O)(Nc1cccc(-n2cnnn2)c1)c1cc(Br)ccc1Br	-0.6	0.1	i	0.68	1.9	x	-4.0
COc1ccc(OC)c(NC(=O)CSc2nncc3ccccc23)c1	4.1	-1.4	i	0.69	4.4	-4%	1.2
COc1ccccc1N1CCN(C(=O)c2cc3cc(Br)ccc3oc2=O)CC1	2.2	-11	i	0.79	6.6	4%	0.4
Cc1ccccc1-c1nnc(SCC(=O)N(C)C2CCS(=O)(=O)C2)n1C (stereo unspecified)	x	-0.2	i	0.67	0.3	x	-0.1
O=C(NCc1cccc(C(F)(F)F)c1)c1csc(COCCO)n1	x	-2.1	i	x	x	x	0.6
O=C(Nc1nnc(-c2ccc3c(c2)CCCC3)o1)c1c(F)cccc1F	2.5	1.1	i	0.67	0.0	9%	-2.4
Cc1ccc(/C=C/C(=O)NC2CCS(=O)(=O)C2)cc1 (stereo unspecified)	-5.4	-1.0	x	0.67	2.2	-1%	-2.9
N#CC1=C(N)Oc2n[nH]c(-c3ccccc3)c2C1c1cccnc1 (stereo unspecified)	2.0	x	x	0.68	2.2	-4%	-1.9
COc1ccc(OC)c(/C=C2\SC(=S)N(C(C(=O)O)c3ccccc3)C2=O)c1 (stereo unspecified)	-31	x	x	0.67	12	x	10
COCCNC(=O)C(c1ccc(C)cc1)N(CCOC)C(=O)CCC(=O)Nc1ccccn1 (stereo unspecified)	-1.7	0.0	x	0.66	0.6	x	-0.3
COc1ccc(CC(=O)NCc2csc(-c3cccs3)n2)cc1OC	0.4	5.7	i	0.71	1.7	-8%	2.6
Cc1nnsc1-c1c(C(=O)N2CCOCC2)c(C)nn1-c1ccc(Cl)cc1	4.1	-0.2	i	0.66	5.5	x	2.2
CCSC1(SCC)N=C(N)C2(C#N)C(c3ccccc3)NC(C)=CC12C#N (stereo unspecified)	3.3	x	x	0.7	-1.0	-3%	1.5
Clc1ccc(COn2c(-c3ccccc3)nc3ccccc32)cc1	5.4	x	x	0.63	0.4	-4%	13
O=C(CN1CCOCC1)NNC(=S)Nc1ccc(Cl)cc1	-1.9	-2.6	i	0.67	3.4	x	-1.7
CC(=O)N1CCN(CCN(CC2C(C)C=C(C)CC2C)C(C)=O)CC1 (stereo unspecified)	0.4	x	x	0.81	3.5	-2%	0.2
O=C(NC(c1ccc(F)cc1)c1ccc2ccccc2n1)C1CCN(CCOc2ccc(Cl)cc2)CC1 (stereo unspecified)	x	7.7	i	x	x	x	-2.4
Cc1nnc(C)n1N	1.0	-3.4	i	0.67	0.9	6%	0.6
C[C@@H](NC(=O)c1coc(=O)c(Br)c1)c1ccccc1	3.8	x	x	x	9.1	10%	-1.2
Cc1n[nH]c(=S)c2nn(-c3ccccc3F)c(C)c12	-31	x	x	0.69	7.6	19%	-0.2
C/C=N/NC(=O)CCCC(=O)N/N=C/C	-0.7	x	x	x	x	8%	5.6
O=c1[nH]c(=O)n2c(c1-c1ccccc1)OC(CBr)C2 (stereo unspecified)	x	-0.2	i	x	x	1%	3.8
O=C(c1c(F)cccc1F)N1CCC(O)(c2cccnc2)CC1	2.6	x	x	0.74	-3.7	-10%	0.0
COc1ccc2c(=O)cc(CO)oc2c1	x	0.0	i	0.71	5.9	-1%	2.0
O=C1C=C(Nc2ccc(F)cc2)c2ccccc2C1=O	x	3.2	i	0.61	57*	x	1.8

Only part of the results is shown; the hit share may differ from the screen's.
